CHT inh: human CHT choline transport inhibition | Q9GZV3 | CHT-expressing cells, membrane potential dye, choline response; hits give low values | B-score at 10 µM | hit rate 0.86% among 310,000 | AID 488975;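 active means B-score over 3 SD under the library average, and starting fluorescence ratio not unusually high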;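 further: choline stimulus applied at its EC90 after an EC20 pre-addition; B-score computed on integrated fluorescence ratio after choline addition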
Target sequence (Q9GZV3 whole entry, looked up): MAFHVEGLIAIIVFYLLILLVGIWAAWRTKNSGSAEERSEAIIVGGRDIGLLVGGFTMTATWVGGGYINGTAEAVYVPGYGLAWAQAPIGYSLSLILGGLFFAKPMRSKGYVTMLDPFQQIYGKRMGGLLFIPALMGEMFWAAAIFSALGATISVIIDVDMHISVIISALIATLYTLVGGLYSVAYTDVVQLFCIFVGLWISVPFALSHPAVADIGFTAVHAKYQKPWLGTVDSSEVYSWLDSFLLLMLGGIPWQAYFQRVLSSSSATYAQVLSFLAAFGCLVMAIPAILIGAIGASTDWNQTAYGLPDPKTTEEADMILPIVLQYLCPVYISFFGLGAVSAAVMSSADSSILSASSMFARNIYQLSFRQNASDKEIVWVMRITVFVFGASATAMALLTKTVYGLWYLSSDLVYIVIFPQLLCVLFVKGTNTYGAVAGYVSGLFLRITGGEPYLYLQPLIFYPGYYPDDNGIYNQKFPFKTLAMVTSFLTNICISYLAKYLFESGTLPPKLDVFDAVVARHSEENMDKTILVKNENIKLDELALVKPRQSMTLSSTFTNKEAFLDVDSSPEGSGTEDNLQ
Calls only.

CC(C)(C)OC(=O)N1CCC2(CC1)Oc1ccc(F)cc1C(=O)C21CC(c2ccccc2)=NO1 (stereo not given) was read as CHT inh inactive.
For COc1ccc(C)cc1S(=O)(=O)Nc1cccc(Cl)c1 the results were CHT inh inactive.
For CCN(CC)CCNS(=O)(=O)c1ccc2[nH]cc(C(=O)O)c(=O)c2c1 the results were CHT inh inactive.
For Cc1ccc(NC(=O)COC(=O)COc2cccc3c2OC(C)(C)C3)cc1S(=O)(=O)N1CCOCC1 the results were CHT inh inactive.
Screening COC(=O)c1cc(=O)c2c(C)nc(C(Cl)(Cl)Cl)nc2[nH]1 returned CHT inh inactive.
`COc1ccc(CS(=O)(=O)CC(C)(O)c2ccccc2)cc1` (stereo not given) gave CHT inh inactive.
COc1ccc(/C=N/NC(=O)Cn2cc(C(F)(F)F)ccc2=O)cc1 was read as CHT inh inactive.
Cc1ccc(S(=O)(=O)N2CCCC2C(=O)OCc2ccco2)cc1 (stereo not given) was read as CHT inh inactive.
For COC(=O)CSc1nc(C)c(Oc2ccccc2)c(=O)[nH]1 the results were CHT inh inactive.
`Cc1cc(N(CC(=O)O)S(C)(=O)=O)ccc1Br` gave CHT inh inactive.
For Cc1cc(C)nc(NC2=NCCN2C(=S)Nc2ccc(C)c(C)c2)n1 the results were CHT inh inactive.
Screening Cc1ccc(NC(=O)CNC(=O)c2ccco2)c(Cl)c1 returned CHT inh inactive.
Screening COC(=O)NC(=S)N1CCOCC1 returned CHT inh inactive.
`COc1ccc(/C=N\NC(=O)/C(=C\Nc2nccc(C)n2)NC(=O)c2ccccc2)cc1` gave CHT inh inactive.
Screening O=C(OCc1nc2ccccc2s1)C1CCN(S(=O)(=O)c2cccs2)CC1 returned CHT inh inactive.
`CC1=CC(=O)C(C(C)C)=CC1=NC(=O)c1ccc(C)cc1` gave CHT inh inactive.
`Cc1cccc(NC(=O)CCCN2C(=S)NC(C)(C)CC2C)c1C` (stereo not given) gave CHT inh inactive.
`CCCc1cc(C(=O)Nc2ccc(F)cc2F)no1` gave CHT inh inactive.
`COCCn1c(NCc2ccccc2)nc2c1c(=O)[nH]c(=O)n2C` gave CHT inh inactive.
For O=C(NCC1CCCO1)c1cc(NS(=O)(=O)c2cccs2)cc(NS(=O)(=O)c2cccs2)c1 (stereo not given) the results were CHT inh inactive.
`O=C(Nc1ccc2c(c1)OCO2)C1COc2ccccc2O1` (stereo not given) gave CHT inh inactive.
For Cc1cc(C(=O)N/N=C/c2cc(Br)cc(Br)c2OC(=O)c2ccccc2)n[nH]1 the results were CHT inh inactive.
`O=C(Cc1ccccn1)c1ccc(O)cc1O` gave CHT inh inactive.
`Cn1c(Cn2c(=O)sc3ccccc32)nnc1SCc1ccccc1F` gave CHT inh inactive.
Cc1cc(C)n2nc(C)c(-c3ccccc3)c2n1 was read as CHT inh inactive.
CCN(CC)S(=O)(=O)c1ccc(Cl)c(C(=O)NCCN2CCOCC2)c1 was read as CHT inh inactive.
`Cn1cc([N+](=O)[O-])c(C(=O)N/N=C/c2ccc([N+](=O)[O-])cc2)n1` gave CHT inh inactive.
Screening CC(C)CCN1CCNC(=O)C1CC(=O)N(C)CCCN1CCOCC1 (stereo not given) returned CHT inh inactive.
Screening Cc1ccc(-n2ccc(=O)c(C(=O)Nc3ccc(S(=O)(=O)N4CCOCC4)cc3)n2)cc1 returned CHT inh inactive.
Screening O=C(CSc1ccccc1C(=O)O)c1ccc([N+](=O)[O-])cc1 returned CHT inh inactive.
Screening CCC1CCCCN1c1nc2c(C=O)c(C)nn2c2ccccc12 (stereo not given) returned CHT inh inactive.
`CCOc1ccc(-n2c(=S)sc3c(=O)n(-c4ccccc4)c(SC)nc32)cc1` gave CHT inh inactive.
Screening CCn1nc(C)cc1C(=O)N1CCCC(N2CCN(c3cccc(Cl)c3)CC2)C1 (stereo not given) returned CHT inh inactive.
`COCC1CCCN(Cc2cn[nH]c2-c2cc3ccccc3o2)C1` (stereo not given) gave CHT inh inactive.
`CC(=O)Nc1ccc(S(=O)(=O)Nc2ccc(=O)n(Cc3ccc(Cl)c(Cl)c3)c2)cc1` gave CHT inh inactive.
`CCCCC(=O)N(c1ccc(OCC)cc1)C1C=CS(=O)(=O)C1` (stereo not given) gave CHT inh inactive.

Arranged by SMILES length (lowest first): three of the compounds above
Screening O=C(CSc1ccccc1C(=O)O)c1ccc([N+](=O)[O-])cc1 returned CHT inh inactive.
Screening CCn1nc(C)cc1C(=O)N1CCCC(N2CCN(c3cccc(Cl)c3)CC2)C1 (stereo not given) returned CHT inh inactive.
Screening Cc1ccc(-n2ccc(=O)c(C(=O)Nc3ccc(S(=O)(=O)N4CCOCC4)cc3)n2)cc1 returned CHT inh inactive.

(next part)
COCCn1c(SCc2nnc(-c3ccc(OC)c(OC)c3)o2)nnc1-c1ccncc1 was read as CHT inh inactive.
For Cc1c(Cl)c([N+](=O)[O-])nn1CC(=O)N1CCc2ccccc2C1 the results were CHT inh inactive.
`CC(C)(C)c1ccc(S(=O)(=O)NCc2ccc(C(=O)NCc3ccccn3)cc2)cc1` gave CHT inh inactive.
For O=C(COc1ccccc1)Nc1ccc(CSc2ccccc2)cc1 the results were CHT inh inactive.
Screening CC1CCCCN1CC(O)COc1ccc(OCC(O)CN2CCCCC2C)cc1 (stereo not given) returned CHT inh inactive.
`Cc1cc(C)n2nc(SCc3ccc(F)cc3Cl)nc2n1` gave CHT inh inactive.
`CCC(C(=O)NC1CCCC1)N(C(=O)Cn1nnc(-c2ccc(C)cc2)n1)C1CCCC1` (stereo not given) gave CHT inh inactive.
For NC(=S)N/N=C/c1cc([N+](=O)[O-])ccc1OCCOc1ccccc1 the results were CHT inh inactive.
Screening CCCS(=O)(=O)N1CCC(C(=O)NCc2cccnc2)CC1 returned CHT inh inactive.
CC(C)[C@H](NC(=O)[C@H](CCCN=C(N)N)NC(=O)NC(Cc1ccccc1)C(=O)O)C(=O)NC(C=O)CCCN=C(N)N (stereo not given in full) was read as CHT inh inactive.
`Cn1c(-c2ccccc2)c(/C=N/NC(=O)c2ccc(O)cc2)c2ccccc21` gave CHT inh inactive.
Screening CN1CCN(C(=O)c2ccc(C(C)(C)C)cc2)CC1 returned CHT inh inactive.
`Cc1noc2ncnc(Oc3ccc(F)cc3)c12` gave CHT inh inactive.
`CC1CCN(S(=O)(=O)c2cccc3cccnc23)CC1` gave CHT inh inactive.
For COc1ccccc1N(CC(=O)NCCSc1ccccn1)S(=O)(=O)c1ccccc1 the results were CHT inh inactive.
Screening CCOc1ccccc1N1CCN(C(=O)c2ccc3[nH]c4c(c3c2)CCCC4)CC1 returned CHT inh inactive.
`CC1CCN(CC(C)OC(=O)c2ccco2)CC1` (stereo not given) gave CHT inh inactive.
COC(=O)c1cc(S(=O)(=O)NCCc2ccccc2)c[nH]1 was read as CHT inh inactive.
`COc1ccc(-c2cc(C(=O)N(C)CC(=O)Nc3ccccc3Cl)c3ccccc3n2)cc1OC` gave CHT inh inactive.
`CCCn1c(=O)c2[nH]cnc2n(-c2ccc(Cl)cc2)c1=O` gave CHT inh inactive.
`O=C(COc1ccccc1)NCC(=O)Nc1cccc(S(=O)(=O)NC2=NCCC2)c1` gave CHT inh inactive.
Screening CCCCNC(=O)CSc1nc2ccccc2c(=O)n1CC1COc2ccccc2O1 (stereo not given) returned CHT inh inactive.
For Cc1sc2c(c1C)c(=O)n(-c1ccccc1)c1nncn21 the results were CHT inh inactive.
Screening O=C(c1ccc(=O)[nH]n1)N1CCc2ccccc2C1 returned CHT inh inactive.
Screening Cn1c(SCC#N)nnc1-c1ccc2c(c1)OCO2 returned CHT inh inactive.
`N#CCSc1nc2ccccc2c(=O)n1CCCC(=O)NCc1ccco1` gave CHT inh inactive.
Screening O=C(NCC1CCCO1)/C(=C\c1cccs1)NC(=O)c1ccccc1 (stereo not given) returned CHT inh inactive.
`CC(=O)Nc1cccc(NC(=O)C(F)(F)F)c1` gave CHT inh inactive.
COc1ccc(NC(=O)CSc2nnc(-c3ccccc3C)n2N)cc1 was read as CHT inh inactive.
`Cc1[nH]nc2c1C(c1ccc(OC(=O)c3ccco3)cc1)C(C#N)=C(N)O2` (stereo not given) gave CHT inh inactive.
`CN1C=C(C(F)(F)F)C=C/C1=C(\C#N)c1nnc2n1CCCCC2` gave CHT inh inactive.
Screening CCCCn1c(SC(C)C(=O)NCC2CCCO2)nc2cc(C(=O)OC)ccc2c1=O (stereo not given) returned CHT inh inactive.
For Cc1nn(CC(=O)NCCN2CCCCC2C)c(=O)c2cc(-c3ccccc3)nn12 (stereo not given) the results were CHT inh inactive.
Screening O=C(C1CCCO1)N1CCN(S(=O)(=O)c2ccccc2)CC1 (stereo not given) returned CHT inh inactive.
For C=CCN(CC=C)C(=O)COC(=O)c1n[nH]c2ccccc12 the results were CHT inh inactive.
`Cc1ccccc1NC(=O)N1C2CCCC1CC(NC(=O)C1CC1)C2` (stereo not given) gave CHT inh inactive.
For Cc1cc(C)cc(NC(=O)c2cnn(-c3ccccc3)c2C2CCNCC2)c1 the results were CHT inh inactive.
CCOc1nc(N(C)C)nc(-n2nnc(C(C)=O)c2C)n1 was read as CHT inh inactive.
Screening COc1ccc(Cl)cc1NC(=O)CN1CCc2ccccc2C1 returned CHT inh inactive.
For Brc1ccc(OCc2nc3ccccc3[nH]2)cc1 the results were CHT inh inactive.
Screening Cc1ccccc1CN(c1ccc(C(=O)N2CCN(C)CC2)cc1)S(C)(=O)=O returned CHT inh inactive.
`COC(=O)c1sccc1Oc1ccc(Cl)cc1N1C(=O)CCC1=O` gave CHT inh inactive.
For COc1cc(C2c3sc(=O)[nH]c3SC3C(=O)N(c4ccc(Br)cc4)C(=O)C32)ccc1O (stereo not given) the results were CHT inh inactive.
O=C(O)c1ccc(COc2c(F)c(F)cc(F)c2F)o1 was read as CHT inh inactive.
For CCn1cc(C(=O)O)c(=O)c2cc(F)c(N/N=C/c3ccccc3)cc21 the results were CHT inh inactive.
For COc1ccc(C(=O)NC(=S)Nc2cccc(NC(=O)c3ccco3)c2)cc1[N+](=O)[O-] the results were CHT inh inactive.
Screening CC1CCN(C(=O)c2ccccc2NC(=O)c2cccs2)CC1 returned CHT inh inactive.
`CCC(C)N=C1CC(C)(C)CC(=O)/C1=C(/O)Cc1ccccc1` (stereo not given) gave CHT inh inactive.
Screening CCc1ccc(NC(=O)CSc2nc(CSc3ccc(C)cc3)cc(=O)[nH]2)cc1 returned CHT inh inactive.
`Cc1ccc(/C=N/NC(=O)CN(Cc2ccccc2)S(=O)(=O)c2ccc3c(c2)OCCO3)cc1` gave CHT inh inactive.
Screening CCCCNC(=O)c1onc(CSc2ccccn2)c1C(=O)NCCCC returned CHT inh inactive.
Screening CC(C)N(Cc1nc(-c2ccc3c(c2)OCO3)no1)Cc1nccn1C returned CHT inh inactive.
COc1ccc(-c2csc(-c3cccs3)n2)cc1OC was read as CHT inh inactive.
Screening O=[N+]([O-])c1cc(S(=O)(=O)NCCCN2CCOCC2)ccc1Cl returned CHT inh inactive.
O=C(/C=C/c1ccc(Cl)c(Cl)c1)n1cccn1 was read as CHT inh inactive.
`COc1ccc(-c2cc(=Nc3c(C)n(C)n(-c4ccccc4)c3=O)c3ccccc3o2)cc1` gave CHT inh inactive.
COc1ccccc1CCNC(=O)CN1C(=O)c2ccccc2S1(=O)=O was read as CHT inh inactive.
For C=CCOc1ccc(CNc2nn[nH]n2)cc1 the results were CHT inh inactive.
`Cn1c(=O)n(Cc2ccccc2)c(=O)c2c1nc1n2CCCN1C1CCCCC1` gave CHT inh inactive.
Screening CC1=C(C(=O)OCc2ccccc2)C(c2ccsc2)NC(=O)N1C (stereo not given) returned CHT inh inactive.
`NC(CO)(CO)COCc1ccccc1` gave CHT inh inactive.
For CCC(C)C(NC(=O)OCc1ccccc1)C(=O)NCC(c1ccccc1)N(C)C (stereo not given) the results were CHT inh inactive.
For CCOc1ccccc1N(CC(=O)Nc1ccccc1C(=O)O)S(C)(=O)=O the results were CHT inh inactive.
For COc1ccc2c(C)cc(SCC(=O)N3CCOCC3)nc2c1 the results were CHT inh inactive.
Cc1cc(NC(=O)c2ccccc2F)cc(C)c1OCC(=O)N1CCOCC1 was read as CHT inh inactive.

Filtered by structure: the entries above containing a Cl atom.
For COc1ccc(C)cc1S(=O)(=O)Nc1cccc(Cl)c1 the results were CHT inh inactive.
Screening COC(=O)c1cc(=O)c2c(C)nc(C(Cl)(Cl)Cl)nc2[nH]1 returned CHT inh inactive.
Screening Cc1ccc(NC(=O)CNC(=O)c2ccco2)c(Cl)c1 returned CHT inh inactive.
CCN(CC)S(=O)(=O)c1ccc(Cl)c(C(=O)NCCN2CCOCC2)c1 was read as CHT inh inactive.
Screening CCn1nc(C)cc1C(=O)N1CCCC(N2CCN(c3cccc(Cl)c3)CC2)C1 (stereo not given) returned CHT inh inactive.
`CC(=O)Nc1ccc(S(=O)(=O)Nc2ccc(=O)n(Cc3ccc(Cl)c(Cl)c3)c2)cc1` gave CHT inh inactive.
For Cc1c(Cl)c([N+](=O)[O-])nn1CC(=O)N1CCc2ccccc2C1 the results were CHT inh inactive.
`Cc1cc(C)n2nc(SCc3ccc(F)cc3Cl)nc2n1` gave CHT inh inactive.
`COc1ccc(-c2cc(C(=O)N(C)CC(=O)Nc3ccccc3Cl)c3ccccc3n2)cc1OC` gave CHT inh inactive.
`CCCn1c(=O)c2[nH]cnc2n(-c2ccc(Cl)cc2)c1=O` gave CHT inh inactive.
Screening COc1ccc(Cl)cc1NC(=O)CN1CCc2ccccc2C1 returned CHT inh inactive.
`COC(=O)c1sccc1Oc1ccc(Cl)cc1N1C(=O)CCC1=O` gave CHT inh inactive.
Screening O=[N+]([O-])c1cc(S(=O)(=O)NCCCN2CCOCC2)ccc1Cl returned CHT inh inactive.
O=C(/C=C/c1ccc(Cl)c(Cl)c1)n1cccn1 was read as CHT inh inactive.

These rows are one share of the data, and most or all hits are left out here.
